Source: PubChem
KCNQ2 inh: KCNQ2 channel blockers in CHO-K1 cells – cell-based, FluxOR thallium flux, B-score, primary screen (AID 2156); O88943; 20 min; stronger effect = lower value; only compounds with negative scores are shown here; some inactives read as strong as hits; B-score at 10 µM; hit rate 1.1% among 310,000;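 active means fluorescence ratio B-score at most minus 3 library SDs, with starting brightness B-score within 2 library SDs, cut at about -5.5 in these data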
Target sequence (O88943 whole entry, looked up): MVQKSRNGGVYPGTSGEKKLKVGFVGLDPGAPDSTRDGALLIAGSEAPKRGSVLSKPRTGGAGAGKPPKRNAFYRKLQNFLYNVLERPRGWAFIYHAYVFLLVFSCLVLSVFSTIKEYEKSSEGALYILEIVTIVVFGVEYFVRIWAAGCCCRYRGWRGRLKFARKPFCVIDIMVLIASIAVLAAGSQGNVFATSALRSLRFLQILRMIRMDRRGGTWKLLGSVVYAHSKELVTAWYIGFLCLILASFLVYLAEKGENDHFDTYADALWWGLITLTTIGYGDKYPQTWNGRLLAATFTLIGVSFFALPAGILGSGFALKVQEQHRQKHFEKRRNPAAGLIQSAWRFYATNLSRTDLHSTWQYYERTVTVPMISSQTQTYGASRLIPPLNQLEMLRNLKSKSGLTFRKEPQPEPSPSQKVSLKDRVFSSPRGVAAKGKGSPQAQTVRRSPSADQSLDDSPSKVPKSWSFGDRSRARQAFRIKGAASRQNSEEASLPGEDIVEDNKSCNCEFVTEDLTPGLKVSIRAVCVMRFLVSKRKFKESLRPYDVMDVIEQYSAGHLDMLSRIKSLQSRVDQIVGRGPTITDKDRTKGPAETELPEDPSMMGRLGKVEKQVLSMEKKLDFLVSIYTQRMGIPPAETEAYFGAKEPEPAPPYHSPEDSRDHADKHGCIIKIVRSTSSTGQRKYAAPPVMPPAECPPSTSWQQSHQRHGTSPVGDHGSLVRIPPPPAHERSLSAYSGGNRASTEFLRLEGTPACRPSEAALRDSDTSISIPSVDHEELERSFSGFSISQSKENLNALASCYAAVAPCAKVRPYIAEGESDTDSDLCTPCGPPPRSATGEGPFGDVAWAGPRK
KCNQ2 inh baseline: second read-out of KCNQ2 inh, no call of its own (marks repeat the call); B-score; measured here: initial fluorescence intensity artifact check;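 brightness before thallium and not channel activity; 0 = typical well and far values either way flag optical interference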
An asterisk follows results filed as active; i = inactive. The list is partial, so the mix of outcomes need not match the whole.

SMILES | KCNQ2 inh | KCNQ2 inh baseline
CC1CCCN(C(=O)CCS(=O)(=O)c2ccc3c(c2)n(C)c(=O)c(=O)n3C)C1 (stereo not given) | i | 0.64
COc1ccc(Br)cc1S(=O)(=O)NCc1ccccc1 | i | 1.5
COc1cccc(-c2ccc(C#N)c(SCC(=O)NCCc3ccc(Cl)cc3)n2)c1 | i | -0.55
CCCCCCOC(=O)C1=C(C)NC(=O)NC1c1ccc2c(c1)OCO2 (stereo not given) | i | 0.78
COc1cc(/C=C2/C(=O)NN(c3ccc(Cl)cc3)C2=O)ccc1OC(=O)c1ccco1 | i | 0.96
CCOc1ccc2ccccc2c1/C=N/NC(=O)c1c(C)cc(C)[nH]c1=O | i | 0.44
CCOC(=O)c1ccccc1NC(=O)CSc1cccc[n+]1[O-] | i | -0.54
Cc1sc2ncn(CC(=O)NCCN(C)C)c(=O)c2c1S(=O)(=O)N1CCC(C)CC1 | i | -2.3
CCN1CCN(C(=O)/C=C/c2ccc(C(C)C)cc2)CC1 | i | 0.31
O=C(N/N=C/c1sc2ccccc2c1O)c1ccccc1 | i | 8.2
COc1ccc(-c2nc3ccccn3c2CN2CCN(c3ccccc3F)CC2)cc1 | i | -2
O=C(Oc1ccccc1C(=O)N1CCOCC1)c1ccccc1 | i | -0.07
O=C(N/N=C/c1ccc2c(c1)OCO2)c1cc(-c2ccccc2Cl)nc2ccccc12 | i | -0.87
C=CCn1cnc2scc(-c3ccc(CC)cc3)c2c1=O | i | -0.85
Cc1ncc([N+](=O)[O-])n1CCOC(=O)c1ccc(Br)cc1 | i | 1.4
Cc1cccc2nc(COc3ccc(Cl)c4cccnc34)cn12 | -9.1* | -0.16*
Nn1c(Nc2ccccc2)nc2ccccc21 | i | -0.4
COc1ccc(N(C)C(=O)CCS(=O)(=O)c2cccc3nonc23)cc1 | i | 0.99
CCN=C1SC(CC(=O)Nc2ccc3c(c2)OCO3)C(=O)N1CC (stereo not given) | i | -1.1
CCOC(=O)c1c(C)[nH]c(C(=O)COC(=O)c2ccncc2)c1C | i | -1.8
CCc1ccc(C(=O)/C=C/NCc2ccc(F)cc2)cc1 | i | -0.03
Cc1cc2sc(C(=O)O)c(C)c2s1 | i | 0.39
COc1ccc(/C=N/n2cc(-c3ccccc3)nc2N)cc1 | i | -2.1
CC(NC(=O)N(Cc1ccccc1)Cc1ccc2c(c1)OCO2)(C(F)(F)F)C(F)(F)F | i | -0.66
C/C(=N\NC(=O)c1nnn(-c2nonc2N)c1CSc1ccccc1)c1ccc2c(c1)OCO2 | i | 0.03
C(#CCN1CCOCC1)COC(c1ccccc1)c1ccccc1 | i | -0.03
O=C1c2ccccc2C(Nc2ccc(F)c(Cl)c2)N1c1ccccn1 (stereo not given) | i | -0.56
Cc1csc(SCC(=O)Nc2sccc2C#N)n1 | i | -0.34
c1c2c(cc3sc(N4CCCCC4)nc13)OCO2 | i | -0.52
COc1ccccc1NC(=O)COc1ccc(C(=O)OCC(=O)N2CCCC2=O)cc1OC | i | 0.05
O=C(COc1ccc(Cl)cc1)Nc1cc(S(=O)(=O)N2CCCCC2)ccc1N1CCCCC1 | i | -0.21
CCOc1ccc(NS(=O)(=O)c2ccc(C)c(C(=O)NCCCn3ccnc3)c2)cc1 | i | 0.04
CCn1nc(C)c(CN2CCc3c([nH]c4ccccc34)C2c2ccc(F)c(OC)c2)c1C (stereo not given) | i | 1.2
O=C(NCC(c1ccc(F)cc1)N1CCOCC1)c1ccccc1F (stereo not given) | i | 0.98
Cc1ccc(S(=O)(=O)Nc2cccnc2)c(C)c1C | i | -0.11
COc1ccc(CNc2ccc3cn[nH]c3c2)c(OC)c1OC | i | 1.4
C=CCn1c(CSc2nc3ccccc3s2)nnc1SCC(=O)NCc1ccccc1 | i | 0.95
CCCC(C)NC(=O)C1CCN(S(=O)(=O)c2ccccc2)CC1 (stereo not given) | i | 1.5
O=C(CN1CCN(Cc2ccccc2)CC1)c1c[nH]c2ccccc12 | i | -0.28
O=C(/C=C/c1ccc([N+](=O)[O-])cc1)c1ccco1 | -7.3* | 0.42*
O=S1(=O)NC(=NCc2ccccc2)c2ccccc21 | i | 1.7
CC(C)C1Nc2c(C(=O)O)cccc2C(Nc2ccccc2C(=O)O)C1(C)C (stereo not given) | i | -0.4
CCCCN(C(=O)c1cccc(-n2cccc2)c1)c1c(N)n(CCC)c(=O)[nH]c1=O | i | -0.65
CC(=O)NCc1ccc(S(=O)(=O)NC2CCN(Cc3ccccc3)CC2)cc1 | i | 1.5
Cc1ccc(NC(=O)CSc2nnc(C)n2CC2CCCO2)cc1 (stereo not given) | i | 0.34
Cc1ccc(N2CCN(S(=O)(=O)c3ccc4c(c3)n(C)c(=O)c(=O)n4C)CC2C)cc1 (stereo not given) | i | 0.59
Oc1ccc(C2=Nn3c(nnc3-c3ccco3)SC2)cc1O | i | -1.4
COc1cccc(N2CCN(C3OC(=O)c4ccccc43)CC2)c1 (stereo not given) | i | -0.25
CCOC(=O)c1ccc2[nH]c3c(c2c1)CCCC3C(=O)OCC (stereo not given) | i | -0.68
O=C(NNS(=O)(=O)c1ccc(Cl)cc1)c1cc(-c2ccccc2)n[nH]1 | i | 3.1
Other compounds
SMILES | KCNQ2 inh | KCNQ2 inh baseline
COc1ccccc1N1CCN(/N=C/c2cc([N+](=O)[O-])ccc2Cl)CC1 | i | 0.01
Cc1ccc(S(=O)(=O)c2c(N)n(NC(=O)c3ccco3)c3nc4ccccc4nc23)cc1 | i | 0.48
Cc1cc(C(=O)N/N=C/c2ccccn2)c2ccccc2n1 | i | -0.35
CCOC(=O)c1ccc2c(c1)C1C=CCC1C(C(=O)OCC)N2 (stereo not given) | i | -0.19
Cc1oc(-c2ccccc2Cl)nc1CN1CCCCC1c1cccnc1 (stereo not given) | i | -0.08
Cc1c(O)ccc2c(CC(=O)N[C@@H](Cc3c[nH]c4ccccc34)C(=O)O)cc(=O)oc12 | i | -1
Cc1ccccc1NC(=O)C1CCC(C)(C(=O)O)C1(C)C (stereo not given) | i | 1.6
Cc1c(NC(=O)CN2CCN(c3ccc(O)cc3)CC2)c(=O)n(-c2ccccc2)n1C | i | -0.78
O=C(CNCc1ccc(F)cc1)Nc1ccccc1[N+](=O)[O-] | i | -0.27
COc1ccc2cc(C(=O)C3CCCN(C(=O)/C=C/c4ccccn4)C3)ccc2c1 (stereo not given) | i | -0.02
O=C(Nc1ccccc1C(=O)OCc1nnc(-c2ccccc2)o1)c1ccco1 | i | -0.16
O=C(O)c1ccc2c(c1)C(=O)/C(=C/c1ccccc1)C2=O | i | -0.67
Cc1ccccc1C(=O)NC(=S)NCC(=O)c1ccccc1 | i | 0.05
Cc1ccc(C(=O)CNc2ccccc2C)cc1 | i | -1.8
CC(=O)c1ccc(NC(=S)Nc2cccc(Cl)c2C)cc1 | i | 0.01
Cc1ccc(N(CC(=O)NCc2ccco2)C(=O)CCC(=O)Nc2ccccn2)c(C)c1 | i | 2.7
COc1ccc(C)c2sc(NC(=O)CCS(=O)(=O)c3ccccc3)nc12 | i | -0.04
CCOc1ccc(NC(=O)CCn2cccc2)cc1 | i | -0.18
COc1ccc(S(=O)(=O)N2CCN(C(=O)c3sccc3-c3ccccc3)CC2)cc1 | i | -0.49
COc1ccccc1C(=O)NCCC(=O)N1CCN(c2cccc(C(F)(F)F)c2)CC1 | i | 3
CCNC(=O)CSc1nc(-c2ccc(F)cc2)cs1 | i | -1.9
COc1ccc(-c2c[n+]3c4n2CCCCC4=C(c2ccccc2)C3)cc1 | -6.2* | -0.22*
CN(c1ccccc1)c1ccc(/C=C(\C#N)c2nnc3n2CCCCC3)cc1[N+](=O)[O-] | i | -0.59
CNc1ccccc1C(=O)OC | i | -0.06
O=C(NCc1ccccn1)C1CC(c2ccccc2O)=NO1 (stereo not given) | i | -0.14
Cn1cc[n+](C)c1COc1ccc(C=O)cc1 | i | -0.4
CCN(CC)CCC(c1cc(OC)c(OC)c(OC)c1)c1c(OC)cc(OC)c2ccc(=O)oc12 (stereo not given) | i | 2.6
O=C(CC1C(=O)NCCN1Cc1c(F)cccc1Cl)NCc1ccccc1 (stereo not given) | i | 0.27
COc1ccc(C2CC(c3ccc(Br)cc3)=NN2C(=S)Nc2ccccc2)cc1 (stereo not given) | i | -0.8
O=C(CNC(=O)c1cccs1)OCC(=O)c1ccc2ccccc2c1 | i | 0.04
CC(=O)Nc1ccc(OS(=O)(=O)c2ccc(C(C)(C)C)cc2)cc1 | i | 1.9
COc1cc(NC(=O)c2ccc3c(c2)OCO3)ccc1NC(=O)c1ccco1 | i | 0.65
O=C(OCCCOC(=O)c1ccc(O)cc1)c1ccc(O)cc1 | i | -0.11
Cc1ccc(NC(=O)CN2C(=O)c3ccccc3C2=O)cc1 | i | 2.5
COc1cc(NC(=O)c2ccco2)c(OC)cc1NC(=O)Nc1ccc(Cl)cc1 | i | 0.01
COc1ccc(S(=O)(=O)N2CCCCCC2)cc1C(=O)Nc1ccc(C)cn1 | i | 0.09
COc1ccc2sc3ccccc3c(=O)c2c1 | i | -0.05
CCCn1c(=O)c(C(=O)NC(C)c2ccccc2)c(O)c2ccccc21 (stereo not given) | -11* | -0.02*
O=C(c1ccccc1)c1ccccc1C(=O)N1CCCC1 | i | 0.57
O=C(Cn1ccccc1=O)c1ccc(Cl)cc1 | i | 0.36
COC(=O)c1cccc(NC(=O)Nc2ccc(Cl)cc2)c1 | i | -1.9
O=C(OCC1OC2OC3(CCCCC3)OC2C2OC3(CCCCC3)OC12)c1ccccc1 (stereo not given) | i | -0.38
ClC1(Cl)CC1CSc1nnc(-c2ccncc2)o1 (stereo not given) | i | 0.92
COc1ccccc1CNC(=O)/C=C/c1ccc(S(=O)(=O)N2CCOCC2)cc1 | i | 2.2
C=CCn1c(SCC(=O)Nc2cccc(C)c2)nnc1-c1cnccn1 | i | -0.04
Cc1ccc(C(=O)NC(C)C2CC3CCC2C3)cc1 (stereo not given) | i | -0.26
CC1CCCCN1C(=O)CCS(=O)(=O)Cc1ccccc1 (stereo not given) | i | -2
C/C(=N\NC(N)=S)C1(C)CCCCC1 | i | -0.16
COc1ccc(NS(=O)(=O)c2ccc(S(=O)(=O)N3CCCC3)cc2)cc1Cl | i | -0.15
COc1ccc2cc(/C=N/NC(=O)CN(c3ccccc3)S(=O)(=O)c3ccccc3)c(Cl)nc2c1 | i | 1.7

Already shown: entries from further up.
SMILES | KCNQ2 inh | KCNQ2 inh baseline
COc1ccc2sc3ccccc3c(=O)c2c1 | i | -0.05
CCCn1c(=O)c(C(=O)NC(C)c2ccccc2)c(O)c2ccccc21 (stereo not given) | -11* | -0.02*
O=C(c1ccccc1)c1ccccc1C(=O)N1CCCC1 | i | 0.57
O=C(Cn1ccccc1=O)c1ccc(Cl)cc1 | i | 0.36
COC(=O)c1cccc(NC(=O)Nc2ccc(Cl)cc2)c1 | i | -1.9
O=C(OCC1OC2OC3(CCCCC3)OC2C2OC3(CCCCC3)OC12)c1ccccc1 (stereo not given) | i | -0.38
ClC1(Cl)CC1CSc1nnc(-c2ccncc2)o1 (stereo not given) | i | 0.92
COc1ccccc1CNC(=O)/C=C/c1ccc(S(=O)(=O)N2CCOCC2)cc1 | i | 2.2
C=CCn1c(SCC(=O)Nc2cccc(C)c2)nnc1-c1cnccn1 | i | -0.04
Cc1ccc(C(=O)NC(C)C2CC3CCC2C3)cc1 (stereo not given) | i | -0.26
CC1CCCCN1C(=O)CCS(=O)(=O)Cc1ccccc1 (stereo not given) | i | -2
C/C(=N\NC(N)=S)C1(C)CCCCC1 | i | -0.16
COc1ccc(NS(=O)(=O)c2ccc(S(=O)(=O)N3CCCC3)cc2)cc1Cl | i | -0.15
COc1ccc2cc(/C=N/NC(=O)CN(c3ccccc3)S(=O)(=O)c3ccccc3)c(Cl)nc2c1 | i | 1.7

(more compounds)
SMILES | KCNQ2 inh | KCNQ2 inh baseline
CS(=O)(=O)Nc1ccc(C2=NN(S(C)(=O)=O)C(c3ccc4nccnc4c3)C2)cc1 (stereo not given) | i | 1.2
CCOC(=O)N1CCC(NC(=O)C2CCN(C(=O)c3cc4oc(C)cc4n3Cc3c(F)cccc3Cl)CC2)CC1 | i | 0.49
CC(C)c1csc(CN2CCC(N3CCC(C(=O)NCC4CCCO4)CC3)CC2)n1 (stereo not given) | i | -0.76
O=C(Cc1ccccc1Cl)N1CCN(c2ncccn2)CC1 | i | 2.3
Cc1oc(-c2cccc(Cl)c2)nc1CN1CCC(C(=O)NCCCN2CCCC2=O)CC1 | i | 0.06
Clc1cccc(/C=N/Nc2nnc(Cl)c3ccccc23)c1 | i | -0.03
N/C(COc1cccc(C(F)(F)F)c1)=N\NC(=O)c1cccnc1Oc1ccccc1 | i | -0.32
O=C(NC(=S)NNC(=O)c1ccco1)c1ccc(F)cc1 | i | 2.2
Cc1ccc(CNS(=O)(=O)c2c(C)[nH]c(C)c2C(=O)N2CCCCC2)cc1 | i | -2.1
O=C(Nc1cccc(F)c1)C1CCN(c2nnnn2-c2ccccc2)CC1 | i | 0.54

Pulled by compound from the entries so far, two records:
SMILES | KCNQ2 inh | KCNQ2 inh baseline
Cc1oc(-c2cccc(Cl)c2)nc1CN1CCC(C(=O)NCCCN2CCCC2=O)CC1 | i | 0.06
CCOC(=O)N1CCC(NC(=O)C2CCN(C(=O)c3cc4oc(C)cc4n3Cc3c(F)cccc3Cl)CC2)CC1 | i | 0.49

(next part)
SMILES | KCNQ2 inh | KCNQ2 inh baseline
CC(C1CC1)N(Cc1ccccc1)C(=O)NC(=O)c1cccc(F)c1 (stereo not given) | i | -2.9
COc1ccc(N(CC(=O)NCc2ccc(C)cc2)S(=O)(=O)c2c(C)nn(C)c2C)cc1 | i | 0.1
CCN(CCNc1ccc(Cl)cc1[N+](=O)[O-])C(=O)c1cc([N+](=O)[O-])c(N(C)C)cc1OC | i | -2.1
Cc1ccccc1S(=O)(=O)/N=C(/c1ccccc1)N1CCOCC1 | i | -2.1
CCCNC(=O)CCCCn1c(=S)[nH]c2c([nH]c3ccc(OC)cc32)c1=O | i | 0.81
C[C@]1(C(=O)NCc2cc(F)cc(C(F)(F)F)c2)C=C[C@@H](Cc2ccccc2)N1C(=O)c1ccccc1 | -7.2* | 2.8*
